Source: PubChem BioAssay (several laboratories)
VCAM-1 inhibition: inhibitors of TNFa-induced VCAM-1 surface display, cell-based, plate reader, pooled HUVEC, TNFa stimulus (AID 454). HUVEC TNFa-induced VCAM-1 surface immunofluorescence, plate reader; numbers were filed only for top-ranked candidate wells. 0.2% of 10,000 active. inhibition, % at 5 µM;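 active means compound among top-ranked inhibitors of TNF-induced VCAM-1 adhesion protein staining, with the hit upheld by image or statistical review; inactive means the rest, including hits rejected on review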;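 further: 0% = TNFa with vehicle and 100% = cells without TNFa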
FPRL1 ligand: binds the human formylpeptide receptor-like-1 FPRL1; 0.3% of 24,000 active; FPRL1-expressing cells, fluorescent ligand binding inhibition, flow cytometry; inhibition, %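 (tested at 6.7 µM)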;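 further: 0% = buffer alone and 100% = receptor blocker peptide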
Target sequence (P25090 whole entry, looked up): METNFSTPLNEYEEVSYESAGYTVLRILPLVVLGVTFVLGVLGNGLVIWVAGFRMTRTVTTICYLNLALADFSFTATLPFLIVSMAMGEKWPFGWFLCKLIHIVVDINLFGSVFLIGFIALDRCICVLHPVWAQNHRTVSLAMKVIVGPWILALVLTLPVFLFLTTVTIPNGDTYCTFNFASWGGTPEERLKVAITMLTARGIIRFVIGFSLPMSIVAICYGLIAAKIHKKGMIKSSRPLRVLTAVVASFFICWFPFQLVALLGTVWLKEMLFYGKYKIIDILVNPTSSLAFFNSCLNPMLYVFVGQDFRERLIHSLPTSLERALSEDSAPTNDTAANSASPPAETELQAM
VCAM-1 imaging: suppression of endothelial VCAM-1 upregulation – imaging, high-content imaging, pooled HUVEC, TNFa stimulus (AID 456); HUVEC TNFa-induced VCAM-1 surface expression, immunofluorescence imaging; numbers were filed only for top-ranked candidate wells; inhibition, % at 5 µM, or IC50 in µM where a hit was titrated; 0.2% of 10,000 active;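 active means top tenth filtered wells with inhibition above zero that passed visual or statistical confirmation; inactive means the rest, including hits rejected on review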;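 further: 0% = stimulated vehicle wells and 100% = unstimulated cells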
VCAM-1 up imaging: enhancers of VCAM-1 display on endothelial cells, imaging, high-content imaging, pooled HUVEC, TNFa stimulus (AID 457). Pooled HUVEC, TNFa-induced VCAM-1 immunofluorescence imaging; hits of this screen are not shown here. calls only. 0.2% of 10,000 active;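 active means a top-ranked rise in VCAM-1 staining upheld on image or statistical review; inactive means the rest, including candidates rejected on review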;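 further: compounds tested at 5 µM in the well; cells exposed to compound for 24 hours before fixing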
FPR binder: binds the human formylpeptide receptor FPR; FPR-expressing cells, fluorescent ligand binding, flow cytometry; inhibition, %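 (tested at 6.7 µM)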; 0.74% of 24,000 active; AID 440;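 further: 0% = buffer wells and 100% = receptor blocker peptide wells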
Target sequence (P21462 whole entry, looked up): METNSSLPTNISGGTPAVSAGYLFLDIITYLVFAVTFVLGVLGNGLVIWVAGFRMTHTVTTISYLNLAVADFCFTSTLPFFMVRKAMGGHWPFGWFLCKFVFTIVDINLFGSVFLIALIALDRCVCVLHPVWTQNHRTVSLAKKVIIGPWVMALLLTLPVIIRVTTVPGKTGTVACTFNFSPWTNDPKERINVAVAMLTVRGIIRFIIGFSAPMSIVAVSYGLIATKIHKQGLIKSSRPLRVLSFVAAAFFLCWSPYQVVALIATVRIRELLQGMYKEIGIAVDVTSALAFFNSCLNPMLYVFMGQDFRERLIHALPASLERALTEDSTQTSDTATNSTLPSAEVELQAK
An asterisk follows results filed as active; i = inactive; nt = no result given.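 How the source made its calls, unless noted: active means mean above 30%; inconclusive means self-fluorescent; inactive means the rest.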

A first look (16 entries):
item | VCAM-1 inhibition | FPRL1 ligand | VCAM-1 imaging | VCAM-1 up imaging | FPR binder | structure
1 | i | 4 | i | i | -2 | COC(C)(C)c1cc(C(C)(C)C)nc(N)n1
2 | i | -3 | i | i | 2 | COc1ccccc1CC(=O)NCc1ccc2c(c1)OCO2
3 | nt | 5 | nt | nt | 0 | COc1ccc(N2CCN(C(=O)CCCOc3cc(=O)n(C)c4ccccc34)CC2)cc1
4 | nt | -3 | nt | nt | 2 | CCC(C)NS(=O)(=O)c1ccc(NC(=O)c2c(-c3ccccc3)noc2C)cc1 (centres undefined)
5 | nt | -3 | nt | nt | 1 | Cc1nc2sc(C(c3ccc(F)cc3)N3CCN(C(=O)c4ccco4)CC3)c(O)n2n1 (centres undefined)
6 | nt | -4 | nt | nt | 2 | COc1ccccc1C(=O)N(Cc1nc(-c2ccc(Cl)cc2)no1)C(C)C
7 | nt | 2 | nt | nt | 0 | O=C(NCCC1=CCCCC1)C1CCN(c2nnc(-n3cccc3)s2)CC1
8 | nt | -6 | nt | nt | -5 | CCOC(=O)C(C)n1cnc2c(nnn2-c2ccc(OC)cc2)c1=O (centres undefined)
9 | nt | 2 | nt | nt | 0 | CCOC(=O)c1c(C)oc(/N=C/c2ccccc2O)c1C#N
10 | i | -2 | i | i | -8 | Cc1ccc(NC2=NCC(=O)N2c2ccc3c(c2)OCCO3)c(C)c1
11 | i | 2 | i | i | 3 | COc1ccc(C(=O)c2ccc(OC)c(N)c2)cc1N
12 | nt | 7 | nt | nt | 3 | CCOC(=O)N1CCN(c2cc(C)nc3nc(C)nn23)CC1
13 | nt | -5 | nt | nt | 6 | Cc1cc(NC(=O)c2cccc(N3C(=O)CCC3=O)c2)no1
14 | nt | 10 | nt | nt | 4 | CN(C)c1nc(N)nc(/C(C#N)=C/C2CC3C=CC2C3)n1 (centres undefined)
15 | i | 7 | i | i | 10 | Cc1ccc2[nH]cc(C(=O)CN3CCC4(CC3)OCCO4)c2c1
16 | i | -3 | i | i | -1 | CCc1nc(C)c(C#N)c2cc(OC)c(OC)cc12

The listing, previewed entries included:
item | VCAM-1 inhibition | FPRL1 ligand | VCAM-1 imaging | VCAM-1 up imaging | FPR binder | structure
1 | i | 4 | i | i | -2 | COC(C)(C)c1cc(C(C)(C)C)nc(N)n1
2 | i | -3 | i | i | 2 | COc1ccccc1CC(=O)NCc1ccc2c(c1)OCO2
3 | nt | 5 | nt | nt | 0 | COc1ccc(N2CCN(C(=O)CCCOc3cc(=O)n(C)c4ccccc34)CC2)cc1
4 | nt | -3 | nt | nt | 2 | CCC(C)NS(=O)(=O)c1ccc(NC(=O)c2c(-c3ccccc3)noc2C)cc1 (centres undefined)
5 | nt | -3 | nt | nt | 1 | Cc1nc2sc(C(c3ccc(F)cc3)N3CCN(C(=O)c4ccco4)CC3)c(O)n2n1 (centres undefined)
6 | nt | -4 | nt | nt | 2 | COc1ccccc1C(=O)N(Cc1nc(-c2ccc(Cl)cc2)no1)C(C)C
7 | nt | 2 | nt | nt | 0 | O=C(NCCC1=CCCCC1)C1CCN(c2nnc(-n3cccc3)s2)CC1
8 | nt | -6 | nt | nt | -5 | CCOC(=O)C(C)n1cnc2c(nnn2-c2ccc(OC)cc2)c1=O (centres undefined)
9 | nt | 2 | nt | nt | 0 | CCOC(=O)c1c(C)oc(/N=C/c2ccccc2O)c1C#N
10 | i | -2 | i | i | -8 | Cc1ccc(NC2=NCC(=O)N2c2ccc3c(c2)OCCO3)c(C)c1
11 | i | 2 | i | i | 3 | COc1ccc(C(=O)c2ccc(OC)c(N)c2)cc1N
12 | nt | 7 | nt | nt | 3 | CCOC(=O)N1CCN(c2cc(C)nc3nc(C)nn23)CC1
13 | nt | -5 | nt | nt | 6 | Cc1cc(NC(=O)c2cccc(N3C(=O)CCC3=O)c2)no1
14 | nt | 10 | nt | nt | 4 | CN(C)c1nc(N)nc(/C(C#N)=C/C2CC3C=CC2C3)n1 (centres undefined)
15 | i | 7 | i | i | 10 | Cc1ccc2[nH]cc(C(=O)CN3CCC4(CC3)OCCO4)c2c1
16 | i | -3 | i | i | -1 | CCc1nc(C)c(C#N)c2cc(OC)c(OC)cc12
17 | nt | -2 | nt | nt | 0 | O=C(c1cc2ccccn2n1)N1CCN(Cc2ccccc2)CC1
18 | i | 0 | i | i | -2 | CC(C)C1N=C2c3ccccc3N=C(SCC(=O)NCCc3ccc(S(N)(=O)=O)cc3)N2C1=O (centres undefined)
19 | nt | -2 | nt | nt | -11 | Cc1ccc(CNC(=O)CN2CCN(Cc3ccc(C)cc3)C2=O)cc1
20 | nt | -2 | nt | nt | -2 | CC1CCCCC1NC(=O)c1cn(C)c2ccc(S(=O)(=O)N3CCCC3)cc2c1=O (centres undefined)
21 | nt | -1 | nt | nt | -4 | Cc1ccccc1CS(=O)(=O)Cc1ccc(C(=O)N2CCOCC2)o1
22 | nt | 7 | nt | nt | 2 | CC(=O)N1CCc2cc(C(=O)CN3CCN(c4cccc(Cl)c4)CC3)ccc21
23 | i | -1 | i | i | 7 | O=S(=O)(c1ccc2ccccc2c1)N(CC(O)CN1CCOCC1)c1ccccc1 (centres undefined)
24 | nt | -4 | nt | nt | 3 | CCC(C)NC(=O)c1c(-c2cc(Cl)c(OC)c(Cl)c2)noc1C (centres undefined)
25 | i | -4 | i | i | -12 | Cc1ccc(-c2[nH]nc3c2C(c2ccc(OC(=O)N4CCOCC4)cc2)C(C#N)=C(N)O3)cc1 (centres undefined)
26 | i | 1 | i | i | 0 | CCOc1ccc(CCN2C(=O)C3C4C=CC(C4)C3C2=O)cc1OCC (centres undefined)
27 | i | -2 | i | i | 1 | CN(C(=O)COc1cc(=O)n(C)c2ccccc12)c1ccc(Br)cc1
28 | nt | -2 | nt | nt | -5 | CC(C)CCOc1ccc(C(=O)CCNC(C)C(=O)O)cc1 (centres undefined)
29 | nt | 0 | nt | nt | 3 | O=C(CNC(=O)Cn1cnc2sc3c(c2c1=O)CCCC3)NCc1ccccn1
30 | i | 8 | i | i | -2 | CCC(C)(C)NC(=O)C(OC(=O)c1ccco1)c1ccccc1OC (centres undefined)
31 | nt | -6 | nt | nt | -4 | CCOC(=O)N1CCN(CC(O)COc2c(OC)cccc2OC)CC1 (centres undefined)
32 | i | 0 | i | i | -4 | CCn1c(SC)nc2c(c1=O)SC(C)C2 (centres undefined)
33 | i | 2 | i | i | -16 | O=C(CSc1n[nH]c(=O)[nH]c1=O)c1ccccc1
34 | nt | 6 | nt | nt | -4 | CCCCN(CC)CCCNC(=O)c1cc2cc3ccc(OC)cc3nc2o1
35 | i | 0 | i | i | 1 | COc1cc(NC(=O)C2CC(c3cccc(OC)c3OC)=NO2)cc(OC)c1OC (centres undefined)
36 | nt | 1 | nt | nt | -8 | Cc1ccc(C(=O)C2=C(O)C(=O)N(CCCN3CCOCC3)C23C(=O)N(C)c2ccccc23)o1 (centres undefined)
37 | i | 2 | i | i | 0 | Cn1c(=O)cc(SCC(=O)NCC2CCCO2)c2ccc(Cl)cc21 (centres undefined)
38 | nt | -5 | nt | nt | -1 | O=C1C(c2ccc(F)cc2)N(C2CCCCC2)C(=O)CN1C1CCCC1 (centres undefined)
39 | i | 3 | i | i | -4 | COc1cccc(C2CC(c3ccc(C)cc3)Nc3nc(N)nn32)c1 (centres undefined)
40 | nt | 1 | nt | nt | 2 | CCCN(CCC)S(=O)(=O)c1cc(Br)cc2c1N(C(=O)CC)CC2
41 | i | -1 | i | i | 5 | C(=N\c1c(-c2ccccc2)nc2n1CCS2)/c1ccccc1
42 | nt | -8 | nt | nt | -5 | O=C(Nc1cccc(C(F)(F)F)c1)c1cc(-c2cccs2)on1
43 | i | -4 | i | i | 5 | CCOC(=O)C(C)Sc1nnc(Cc2cc(=O)[nH]c(=O)[nH]2)n1-c1ccc(Cl)cc1 (centres undefined)
44 | i | 0 | i | i | 1 | COC(=O)CSc1nc(C)c(C(C)=O)cc1C#N
45 | i | -3 | i | i | -3 | c1ccc(C2(Cn3ccc4ccccc43)OCCO2)cc1
46 | nt | -7 | nt | nt | -3 | Cc1cc(C)n2nc(CC(=O)NC3CCCC(C)C3C)nc2n1 (centres undefined)
47 | nt | 4 | nt | nt | 2 | CCC(=O)Nc1cccc(-c2nc3ccccc3c(=O)o2)c1
48 | i | -1 | i | i | -2 | Cc1cc(C(=O)NCCCN2CCOCC2)n(-c2ccccc2)n1
49 | i | 2 | i | i | -2 | O=C1CCN(C(=O)c2ccccc2)C2CCCCC12 (centres undefined)
50 | nt | -7 | nt | nt | -25 | CCOC(=O)N1CCN(c2nc(-c3cccc(OC)c3)cc(C(F)(F)F)n2)CC1
51 | i | 1 | i | i | -1 | Cc1ccc(CCNC(=O)C2CCN(S(=O)(=O)c3ccc4c(c3)CCC(=O)N4)CC2)cc1
52 | nt | 1 | nt | nt | 4 | CCc1cccc(Nc2cc(C)nc3nc(C)nn23)c1
53 | i | -1 | i | i | -1 | COc1cc(C(=O)OCc2cc3ccccc3[nH]c2=O)cc(OC)c1OC
54 | nt | -3 | nt | nt | 7 | CN1C(=O)c2ccccc2C(C(=O)NCC2CCCO2)C1c1c[nH]c2ccccc12 (centres undefined)
55 | i | -1 | i | i | 6 | CCN(CC(=O)Nc1c(C(=O)OC)[nH]c2ccccc12)c1ccc2c(c1)OCO2
56 | nt | -3 | nt | nt | -4 | O=C(c1noc2c1CCc1ccccc1-2)N1CCc2ccccc2C1
57 | nt | -2 | nt | nt | 14 | CCN(CC)S(=O)(=O)c1ccc2oc(C(=O)NCC3COc4ccccc4O3)c(C)c2c1 (centres undefined)
58 | nt | -5 | nt | nt | -4 | COc1ccc(-n2c(=O)[nH]cc(C(=O)Nc3ccc4c(c3)OCCO4)c2=O)cc1
59 | nt | -3 | nt | nt | -21 | COC(=O)C1CCN(c2cc(=O)n(C3CCCCC3)c(=O)[nH]2)CC1
60 | nt | -2 | nt | nt | 5 | O=C(c1csc2c1CCCCC2)N1CCN(c2ncccn2)CC1

(more compounds)
item | VCAM-1 inhibition | FPRL1 ligand | VCAM-1 imaging | VCAM-1 up imaging | FPR binder | structure
61 | i | 0 | i | i | -2 | Cc1ccccc1S(=O)(=O)Cc1ccc(C(=O)NCc2cccnc2)o1
62 | i | -5 | i | i | 5 | CC(C)N(Cc1nc(-c2ccc(Cl)cc2)no1)C(=O)CN(C)S(=O)(=O)c1ccc(Cl)cc1
63 | nt | 12 | nt | nt | 0 | COCCNC(=O)C1c2cc(OC)c(OC)cc2C(=O)N(C)C1c1cccnc1 (centres undefined)
64 | nt | -1 | nt | nt | 25 | COCCCN1C(=O)C(=O)/C(=C(/O)c2ccc(OC(C)C)c(C)c2)C1c1ccncc1 (centres undefined)
65 | i | -4 | i | i | -6 | COc1ccccc1NC(=O)c1oc2ccccc2c1NC(=O)c1cc(OC)c(OC)c(OC)c1
66 | i | 0 | i | i | -3 | O=C1CC(c2cccc(Cl)c2)Cc2nc(N3CCN(c4ccccc4)CC3)ncc21 (centres undefined)
67 | nt | 0 | nt | nt | -7 | Cc1nccc2[nH]c(=O)c(C(=O)NC3CCCCC3C)cc12 (centres undefined)
68 | i | 1 | i | i | 0 | Clc1cccc(-c2nn3c(Cn4cnc5ccccc54)nnc3s2)c1
69 | i | -5 | i | i | 0 | N#CC(C(=O)c1ccco1)c1ccccn1 (centres undefined)
70 | nt | -4 | nt | nt | 5 | O=C(O)C1CCCCC1C(=O)Nc1ccc(Cl)cc1Cl (centres undefined)
71 | i | 7 | i | i | -3 | CCOC(=O)NC1(NCc2ccccc2)Oc2ccccc2O1
72 | nt | -2 | nt | nt | -2 | CCCNC(=O)Cn1cnc2sc(C(=O)NCCN(CC)CC)c(C)c2c1=O
73 | nt | 3 | nt | nt | -7 | COc1ccc(CCNS(=O)(=O)c2ccc3c(c2)CCN3C(=O)C2CC2)cc1OC
74 | nt | -3 | nt | nt | 32* | Cc1ccc(C(=O)C2=C(O)C(=O)N(Cc3ccccc3)C2c2cccnc2)o1 (centres undefined)
75 | nt | 6 | nt | nt | -5 | O=C(NCc1ccco1)c1ccc(CS(=O)(=O)Cc2ccc(F)cc2)o1
76 | nt | 3 | nt | nt | 8 | CCN(CCCNC(=O)CC(C(=O)N1CCc2ccccc21)n1ccnc1)c1ccccc1 (centres undefined)
77 | nt | -2 | nt | nt | 2 | COc1ccc(C(=O)NCc2nnc(SCC(=O)N3CCCCC3)o2)cc1OC
78 | i | -4 | i | i | -3 | O=C(Cn1ccc2ccccc2c1=O)NCCC(=O)N1CCN(C2CCCCC2)CC1
79 | nt | -7 | nt | nt | 2 | O=C(c1oc(=O)c2ccccc2c1-c1ccccc1)N1CCOCC1
80 | nt | -3 | nt | nt | 0 | COc1cccc(C2/C(=C(/O)c3ccc(C)cc3)C(=O)C(=O)N2Cc2ccco2)c1 (centres undefined)
81 | i | -7 | i | i | -7 | COc1cccc(S(=O)(=O)Nc2ccc(C(=O)N3CCN(C(=O)c4ccco4)CC3)cc2)c1
82 | i | -5 | i | i | 2 | CN(C)C(CNc1nnnn1-c1ccccc1)c1ccco1 (centres undefined)

Only part of the results is shown; the hit share may differ from the screen's.
